Vaccinia stage – Vaccinia orthopox stage-specific inhibition; 0.01% of 89,000 active; Vaccinia-infected cells, mCherry/Venus stage reporter fluorescence; active compounds read low; some inactives read as strong as hits; activity change (mCherry), % (test concentration not listed);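 active = mCherry past -33% and 40 or more points under the early reporter, replicates agreeing; inconclusive = past -33% without that gap or agreement; tested in A549 cells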;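 also: scaled between vehicle wells and reference inhibitor wells; 23 nL library stock went into each well; one replicate is shown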
Vaccinia stage Venus – further read-out of Vaccinia stage, marked with its call; activity change (Venus), %; measured here: Venus reporter, other viral stage;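 negative = less Venus signal; first of two replicates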
Starred values were filed as active, the others as inactive; u = inconclusive; x = not tested or not shown. Not all compounds are listed; count on the stated rates, not on these rows.

SMILES	Vaccinia stage	Vaccinia stage Venus
CC(=O)N1CC2(C1)[C@@H](c1ccc(-c3ccc(F)cc3)cc1)[C@@H](CO)N2CC1CC1	-7	2
O=C1CS(=O)(=O)C(c2ccccc2)N1c1ccc(-c2ccccc2)cc1 (centres undefined)	17	20
COc1ccc(NC(=O)N[C@H]2CC[C@H](CCNC(=O)CN3CCOCC3)O[C@@H]2CO)cc1	5	13
Cc1ccc(S(=O)(=O)N(C)C[C@H]2OCCCC[C@H](C)Oc3ccc(NC(=O)CCC(F)(F)F)cc3C(=O)N([C@H](C)CO)C[C@H]2C)cc1	-16	-12
COCC(=O)N(C)C[C@H]1Oc2cc(C3=CCCC3)ccc2S(=O)(=O)N([C@@H](C)CO)C[C@@H]1C	15	5
O=C(C1CC1)N1CC(=O)N2[C@H](CO)[C@H](c3ccc(-c4ccccc4F)cc3)[C@H]2C1	-11	-12
Cc1noc(C)c1NC(=O)Nc1ccc2c(c1)C(=O)N([C@@H](C)CO)C[C@@H](C)[C@H](CN(C)Cc1ccccc1)OCCCC[C@@H](C)O2	14	5
CC(=O)N(C)C[C@H]1Oc2ncc(-c3cccc(C#N)c3)cc2C(=O)N([C@@H](C)CO)C[C@H]1C	13	3
C[C@H](CO)N1C[C@H](C)[C@@H](CN(C)S(C)(=O)=O)Oc2cc(-c3ccccc3)ccc2S1(=O)=O	-15	-8
CCc1sc(N2[C@H](C#N)[C@@H](c3ccccc3-c3ccc(F)cc3)[C@@H]2CO)nc1C	8	8

Among those listed so far, these contain a cyano group.
SMILES	Vaccinia stage	Vaccinia stage Venus
CC(=O)N(C)C[C@H]1Oc2ncc(-c3cccc(C#N)c3)cc2C(=O)N([C@@H](C)CO)C[C@H]1C	13	3
CCc1sc(N2[C@H](C#N)[C@@H](c3ccccc3-c3ccc(F)cc3)[C@@H]2CO)nc1C	8	8

New compounds follow.
SMILES	Vaccinia stage	Vaccinia stage Venus
O=C(C[C@H]1CC[C@@H]2[C@H](COC[C@H](O)CN2Cc2ccccc2)O1)N[C@H]1CCN(Cc2ccccc2)C1	-6	1
C[C@@H]1CCCCO[C@@H](CN(C)Cc2ccc(C(F)(F)F)cc2)[C@@H](C)CN([C@@H](C)CO)C(=O)c2cc(NC(=O)Nc3ccc(F)cc3)ccc2O1	-19	-23
COc1cccc(-c2cn(CC[C@H]3CC[C@@H](NC(C)=O)[C@@H](CO)O3)nn2)c1	11	5
CO[C@H](CN(C)Cc1cc(F)ccc1F)[C@H](C)CN([C@H](C)CO)S(=O)(=O)c1ccc(C)cc1	-11	-2
COc1ccccc1-c1cn(CC[C@@H]2CC[C@@H](NC(=O)C3CCOCC3)[C@@H](CO)O2)nn1	-4	8
C[C@@H]1CN([C@H](C)CO)C(=O)c2cc(C#CCc3ccccc3)cnc2O[C@H]1CN(C)Cc1cccc(C(=O)O)c1	2	2
CCc1cnc(N2[C@H](CO)[C@@H](c3ccccc3)[C@@H]2C#N)s1	-3	1
C[C@@H]1CCCCO[C@@H](CN(C)C(=O)Nc2cccc3ccccc23)[C@H](C)CN([C@H](C)CO)C(=O)c2cc(NC(=O)c3ccccc3)ccc2O1	2	12
COC(=O)C[C@@H]1CC[C@@H]2[C@@H](COc3ccc(NS(=O)(=O)c4ccccc4Cl)cc3C(=O)N2C)O1	10	13
COCC(=O)N1CCCCN2[C@H](CO)[C@H](c3ccc(C#Cc4cccnc4)cc3)[C@@H]2C1	31	24
O=C(C[C@@H]1CC[C@H]2[C@@H](COC[C@@H](O)CN2Cc2ccncc2)O1)NCC1CC1	1	3
C[C@H](NC(=O)C[C@H]1CC[C@@H]2[C@H](COC[C@@H](O)CN2Cc2ccc(C(F)(F)F)cc2)O1)c1ccccc1	-19	-16
Cc1noc(C)c1NC(=O)Nc1ccc2c(c1)CC(=O)N([C@H](C)CO)C[C@H](C)[C@H](CN(C)C(=O)Nc1c(C)noc1C)O2	24	15
COCC#Cc1cnc2c(c1)C(=O)N([C@H](C)CO)C[C@@H](C)[C@@H](CN(C)S(=O)(=O)c1cn(C)cn1)O2	3	2
C[C@@H]1CN([C@@H](C)CO)C(=O)Cc2cc(N(C)C)ccc2O[C@@H]1CN(C)CC1CC1	9	8
CC(C)NC(=O)Nc1ccc2c(c1)C(=O)N([C@@H](C)CO)C[C@@H](C)[C@H](CN(C)C(=O)NC(C)C)O2	-1	-2
COc1cccc(-c2ccc3c(c2)[C@@H]2[C@@H](CCN2C(=O)c2cnccn2)[C@@H](CO)N3)c1	-12	-5
COc1ccc2c3c(n(C)c2c1)[C@@H](CO)N(C(=O)Nc1ccc(F)cc1)CC31CCN(C(=O)c2ccccc2F)CC1	u	x
Cc1ccc(S(=O)(=O)NCC[C@@H]2CC[C@H](NC(=O)C3CCOCC3)[C@H](CO)O2)cc1	-2	8
CCNC(=O)C[C@@H]1CC[C@@H]2[C@H](COC[C@@H](O)CN2C(=O)C2CCCC2)O1	13	16
Cc1noc(C)c1S(=O)(=O)Nc1ccc2c(c1)C(=O)N([C@H](C)CO)C[C@@H](C)[C@@H](CN(C)C(=O)Nc1cccc3ccccc13)O2	20	13
Cc1noc(C)c1S(=O)(=O)Nc1ccc2c(c1)C(=O)N([C@H](C)CO)C[C@H](C)[C@@H](CN(C)C(=O)Nc1ccc3c(c1)OCO3)OCCCC[C@H](C)O2	-4	-2
CS(=O)(=O)N1CC2(C1)[C@@H](c1ccccc1)[C@@H](CO)N2CC1CCCC1	-6	-6
CC(C)NC(=O)N(C)C[C@@H]1Oc2c(NS(C)(=O)=O)cccc2C(=O)N([C@H](C)CO)C[C@H]1C	20	13
C[C@H](CO)N1C[C@H](C)[C@@H](CN(C)CC2CCOCC2)Oc2ncc(C#C[C@@H](C)O)cc2C1=O	9	6
COCC(=O)N1CCC2(CC1)CN(C(=O)Nc1ccccc1F)[C@H](CO)c1c2c2ccc(OC)cc2n1C	27	2
CN1CCN(C(=O)C2=C[C@H](c3csc4ccccc34)C[C@H](OCc3ccc(CO)cc3)O2)CC1	-13	-18
C[C@@H]1CN([C@@H](C)CO)C(=O)c2cc(-c3cccnc3)cnc2O[C@@H]1CN(C)C(=O)Nc1ccc(C(F)(F)F)cc1	-3	-9
C[C@@H]1CN([C@@H](C)CO)C(=O)c2cc(NC(=O)NC3CCCCC3)ccc2O[C@H]1CN(C)CC1CCCCC1	-14	-8
C[C@H]1CN([C@@H](C)CO)C(=O)c2cccc(NS(=O)(=O)c3cn(C)cn3)c2O[C@@H]1CN(C)Cc1ccc(C(=O)Nc2ccccc2N)cc1	21	13
CN(C)C(=O)C[C@H]1CC[C@H]2[C@@H](COC[C@@H](O)CN2CC2CCCC2)O1	-6	1
CO[C@H](CN(C)S(=O)(=O)c1cccc(Cl)c1)[C@H](C)CN([C@H](C)CO)S(=O)(=O)c1cccc(Cl)c1	-26	-16
Cc1cccc(S(=O)(=O)N2CCCCN3[C@H](C2)[C@@H](c2ccc(C#C[C@@H](C)O)cc2)[C@@H]3CO)c1	5	-15
O=S(=O)(c1ccc(-c2ccccc2)cc1)N1C[C@@H]2N[C@H](C1)C2c1ccc(-c2cncnc2)cc1 (some centres undefined)	u	x
C[C@@H]1CCCCO[C@@H](CN(C)C(=O)Nc2ccccc2)[C@@H](C)CN([C@H](C)CO)C(=O)c2cc(NS(=O)(=O)c3ccc(Cl)cc3)ccc2O1	36	33
COc1ccc(S(=O)(=O)N(C)C[C@@H]2Oc3ccc(NC(=O)C4CC4)cc3CC(=O)N([C@H](C)CO)C[C@@H]2C)cc1	8	14
CC(C)NC(=O)N[C@@H]1CC[C@H](CCNC(=O)C2CC2)O[C@H]1CO	5	4
CN(C)CCCNC(=O)C[C@H]1C=C[C@H](NS(=O)(=O)c2ccc(F)cc2)[C@@H](CO)O1	10	12
O=C(C[C@@H]1CC[C@@H](NC(=O)Cc2cccnc2)[C@H](CO)O1)NCc1ccc2c(c1)OCO2	-7	-3
C[C@H]1CN([C@@H](C)CO)C(=O)c2c(c3ccccc3n2C)-c2ccccc2CO[C@H]1CN(C)CC1CC1	-32	-32

Gathered by group, the compounds so far with an aryl methoxy group (7)
SMILES	Vaccinia stage	Vaccinia stage Venus
COc1ccc(NC(=O)N[C@H]2CC[C@H](CCNC(=O)CN3CCOCC3)O[C@@H]2CO)cc1	5	13
COc1cccc(-c2cn(CC[C@H]3CC[C@@H](NC(C)=O)[C@@H](CO)O3)nn2)c1	11	5
COc1ccccc1-c1cn(CC[C@@H]2CC[C@@H](NC(=O)C3CCOCC3)[C@@H](CO)O2)nn1	-4	8
COc1cccc(-c2ccc3c(c2)[C@@H]2[C@@H](CCN2C(=O)c2cnccn2)[C@@H](CO)N3)c1	-12	-5
COc1ccc2c3c(n(C)c2c1)[C@@H](CO)N(C(=O)Nc1ccc(F)cc1)CC31CCN(C(=O)c2ccccc2F)CC1	u	x
COCC(=O)N1CCC2(CC1)CN(C(=O)Nc1ccccc1F)[C@H](CO)c1c2c2ccc(OC)cc2n1C	27	2
COc1ccc(S(=O)(=O)N(C)C[C@@H]2Oc3ccc(NC(=O)C4CC4)cc3CC(=O)N([C@H](C)CO)C[C@@H]2C)cc1	8	14

Next structures:
SMILES	Vaccinia stage	Vaccinia stage Venus
C[C@@H]1CN([C@@H](C)CO)C(=O)Cc2cc(NC(=O)NC3CCCCC3)ccc2O[C@H]1CN(C)C	17	12
C[C@@H]1CN([C@@H](C)CO)S(=O)(=O)c2ccc(C#CC3CCCC3)cc2O[C@@H]1CN(C)C	u	x
C[C@@H]1CN([C@@H](C)CO)C(=O)c2cccc(NC(=O)c3ccc(-c4nccs4)cc3)c2O[C@@H]1CN(C)Cc1ccc(Cl)c(Cl)c1	-23	-24
O=C(Nc1cccc(Cl)c1)N1C[C@H]2[C@@H](c3ccccc31)[C@H](CO)N2CC1CCOCC1	-8	-2
O=C(C[C@@H]1CC[C@H]2[C@@H](COC[C@H](O)CN2Cc2cccc(C(F)(F)F)c2)O1)NCCc1ccccc1	u	x
CC(=O)N(C)C[C@H]1Oc2cc(-c3ccccc3C)ccc2S(=O)(=O)N([C@@H](C)CO)C[C@H]1C	24	11
COCC(=O)N1[C@@H](CO)[C@@H](c2ccccc2)C12CN(C(=O)Cc1ccccn1)C2	19	22
Cc1noc(C)c1NC(=O)N(C)C[C@@H]1Oc2ccc(NS(=O)(=O)c3ccc(F)cc3)cc2C(=O)N([C@H](C)CO)C[C@H]1C	17	14
CNC[C@@H]1Oc2cc(C#Cc3cccc(OC)c3)ccc2S(=O)(=O)N([C@H](C)CO)C[C@H]1C	u	x
C[C@H](CO)N1C[C@H](C)[C@@H](CN(C)Cc2ccccc2)Oc2ccc(NC(=O)Nc3ccccc3)cc2C1=O	-2	2
COCC(=O)N(C)C[C@@H]1Oc2cc(-c3ccc(F)cc3)ccc2S(=O)(=O)N([C@@H](C)CO)C[C@H]1C	-1	8
C[C@@H]1CN([C@@H](C)CO)C(=O)c2cc(NC(=O)NC3CCCCC3)ccc2O[C@H]1CN(C)C(=O)Nc1ccc(F)cc1	-17	-19
N#Cc1cccc(-c2ccc3c(c2)[C@@H]2[C@@H](CCN2Cc2ccncc2)[C@@H](CO)N3)c1	-6	4
CCCN(C)C[C@@H]1OCCCC[C@@H](C)Oc2ccc(NC(=O)CCCCCC(=O)Nc3ccccc3N)cc2C(=O)N([C@H](C)CO)C[C@@H]1C	17	6
COCC(=O)Nc1ccc2c(c1)C(=O)N(C)[C@@H]1CC[C@@H](CC(=O)NCCc3ccncc3)O[C@@H]1CO2	3	9
COc1ccc2c3c([nH]c2c1)[C@@H](CO)N(Cc1ccccc1)CC31CN(C(=O)c2cccnc2)C1	23	18
C[C@@H](NC(=O)C[C@@H]1CC[C@@H](NC(=O)CN2CCOCC2)[C@H](CO)O1)c1ccccc1	2	1
C[C@H](CO)N1C[C@H](C)[C@@H](CN(C)C(=O)CN(C)C)Oc2cc(C#Cc3ccc(F)cc3)ccc2S1(=O)=O	u	x
C[C@H]1CN([C@@H](C)CO)C(=O)c2cc(NC(=O)Cc3ccccc3)ccc2O[C@@H]1CN(C)Cc1ccc(C(=O)O)cc1	12	8
CO[C@H]1CN(C)C(=O)c2cc(NC(=O)CC(F)(F)F)ccc2OC[C@H](C)N(C(=O)C2CCCCC2)C[C@H]1C	14	8
O=C(C[C@H]1CC[C@H](NC(=O)c2ccccc2)[C@@H](CO)O1)NCc1ccc(Oc2ccccc2)cc1	-16	-20
O=C(C[C@@H]1C=C[C@H](NC(=O)C2CCOCC2)[C@H](CO)O1)NCc1ccncc1	-9	2
Cc1cccc(S(=O)(=O)N[C@H]2CC[C@H](CCNC(=O)Nc3cc(F)ccc3F)O[C@@H]2CO)c1	0	4
COc1cccc(NC(=O)N(C)C[C@@H]2Oc3cc(-c4ccccc4F)ccc3S(=O)(=O)N([C@H](C)CO)C[C@H]2C)c1	-28	-22
CCCNC(=O)N1[C@@H]2c3ccc(-c4cccc(F)c4)c(=O)n3C[C@H]1[C@H](CO)[C@H]2C(=O)NC1CCC1	2	-8
CN1C(=O)c2cc(NC(=O)Cc3ccccc3)ccc2OC[C@H]2O[C@@H](CC(=O)O)CC[C@@H]21	6	8
CCCN1C[C@@H](C)[C@H](OC)CN(C)C(=O)c2cc(NC(=O)c3cnccn3)ccc2OC[C@@H]1C	9	11
CCC(=O)Nc1ccc2c(c1)C(=O)N(C)C[C@@H](OC)[C@H](C)CN(C(C)=O)[C@@H](C)CO2	6	6
